# Source: PubChem
# RanGTP-Imp inh: inhibitors of RanGTP-importin-beta interaction, primary screen, biochemical, FRET, CFP-Ran, YFP-importin-beta, homogeneous. hit rate 1.1% among 300,000. AID 2216. cell-free CFP-Ran/YFP-importin-beta FRET ratio. inhibition, % (concentration not given with the values);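 active = most replicates above 15%; inconclusive = exactly half above 15%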;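 also: 0% = DMSO wells and 100% = Ran loaded with GDP instead of GTP; wells of about 40 µL received 100 nL stock; the first replicate is given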
# HNF4A DNA FP: change in binding of human HNF4 alpha to DNA; P41235; HNF4a-FITC DNA binding, fluorescence polarization, 1 h; activity change, % at 10 µM; hit rate 0.3% among 360,000; in the data active = activity change above about 30%, passing the limit was not always enough;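 also: controls were the assay level and a saturating level of protein; the project sought stronger binding though the title names inhibitors; some compounds called inactive have numbers as strong as hits; positive values seem to mean higher polarization but the record does not say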
# Target sequence (P41235 whole entry, looked up): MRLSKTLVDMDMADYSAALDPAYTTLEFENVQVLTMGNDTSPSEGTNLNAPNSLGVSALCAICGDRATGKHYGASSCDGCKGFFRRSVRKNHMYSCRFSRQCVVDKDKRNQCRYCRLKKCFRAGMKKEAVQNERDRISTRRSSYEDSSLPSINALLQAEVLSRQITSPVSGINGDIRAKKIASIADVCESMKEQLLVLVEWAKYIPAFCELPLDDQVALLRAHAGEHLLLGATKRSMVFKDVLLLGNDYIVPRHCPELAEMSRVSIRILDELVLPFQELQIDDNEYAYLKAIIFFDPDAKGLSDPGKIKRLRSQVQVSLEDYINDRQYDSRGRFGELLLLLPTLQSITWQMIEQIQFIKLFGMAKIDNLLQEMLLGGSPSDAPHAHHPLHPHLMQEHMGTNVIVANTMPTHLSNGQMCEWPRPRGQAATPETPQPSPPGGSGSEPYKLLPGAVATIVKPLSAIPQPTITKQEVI
# Vif A3G: inhibitors of Vif binding to APOBEC3G peptide, primary screen, biochemical, TR-FRET, GST-Vif 1-94, biotin-A3G peptide, dose response retest (AID 1117319) | TR-FRET GST-Vif / biotin-A3G peptide binding; higher % means a stronger effect; test concentration not given here; strong numbers were not always called active | inhibition, %; hits with a dose series show IC50 in µM | hit rate 0.57% among 260,000;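 active = above the screen mean plus three standard deviations and confirmed in dose response; inconclusive = results disagree or hit not tested in dose response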;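 also: Vif residues 1-94 fused to GST binding biotinylated APOBEC3G peptide 110-148; 0% = full assay without inhibitor and 100% = GST in place of GST-Vif; retest series ran down from 100 µM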
# ALR H2O2 inh: blocks human ALR sulfhydryl oxidase activity; purified ALR, DTT oxidation, H2O2 HRP-luminol luminescence; inhibition, % (test concentration not listed); hit rate 3.8% among 290,000; AID 485317;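 active = mean and each replicate at 75% or more; inconclusive = only one of the two met; inactive = neither met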;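 also: stock transfer was 7.5 nL into about 7.5 µL; 0% = neutral wells and 100% = wells with inactivated enzyme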
# Target sequence (P55789 whole entry, looked up): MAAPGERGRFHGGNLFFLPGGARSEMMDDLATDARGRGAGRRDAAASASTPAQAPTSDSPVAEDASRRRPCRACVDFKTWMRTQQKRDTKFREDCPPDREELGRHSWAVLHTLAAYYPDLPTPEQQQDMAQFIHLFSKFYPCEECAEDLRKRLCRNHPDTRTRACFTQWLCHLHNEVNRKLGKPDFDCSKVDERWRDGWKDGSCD
# LANA-H2A inh: blocks KSHV LANA binding to histone H2A/H2B; AID 2629; cell-free LANA-H2A/H2B peptide, fluorescence polarization; hit rate 0.6% among 320,000; Q9QR71; inhibition, % (test concentration not listed); in the data active = inhibition mostly above about 10%, no sharp cut-off; inactive = mostly below about 6.7%;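 also: stock transfer was 7.5 nL into about 10 µL; 0% = median of vehicle wells and 100% = median of positive control wells; one replicate is shown; the record names a cut of 25% in any replicate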
# Calb FLC: C. albicans growth modulation with fluconazole; C. albicans CaCi-2 (fluconazole-resistant clinical isolate) + fluconazole, Alamar Blue growth, 48 h; growth inhibition, % (no concentration beside the values); hit rate 0.57% among 300,000; AID 1979;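 active = most replicates above 75%; inconclusive = exactly half above 75%; inactive = most below 75%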;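 also: all wells also contain fluconazole at 8 µg/ml as a sub-toxic cotreatment; 0% = median of DMSO wells and 100% = median of geldanamycin control wells; wells of about 8 µL received 7.5 nL stock; the first replicate is given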
# Beta2AR agonist: activates human beta-2 adrenergic receptor causing internalization. P07550. Am2.2-beta2AR cells, FAP receptor internalization, flow cytometry; reference of the scale not given here. response, % (no concentration beside the values). hit rate 0.43% among 340,000. AID 504454;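 active = response above a set limit, near 3 SD of response in nonfluorescent compounds, cut at about 42% in these data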;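 also: stock transfer was 100 nL into about 11 µL; a reference agonist was the positive control; negative values mostly stem from fluorescent compounds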
# Target sequence (P07550 whole entry, looked up): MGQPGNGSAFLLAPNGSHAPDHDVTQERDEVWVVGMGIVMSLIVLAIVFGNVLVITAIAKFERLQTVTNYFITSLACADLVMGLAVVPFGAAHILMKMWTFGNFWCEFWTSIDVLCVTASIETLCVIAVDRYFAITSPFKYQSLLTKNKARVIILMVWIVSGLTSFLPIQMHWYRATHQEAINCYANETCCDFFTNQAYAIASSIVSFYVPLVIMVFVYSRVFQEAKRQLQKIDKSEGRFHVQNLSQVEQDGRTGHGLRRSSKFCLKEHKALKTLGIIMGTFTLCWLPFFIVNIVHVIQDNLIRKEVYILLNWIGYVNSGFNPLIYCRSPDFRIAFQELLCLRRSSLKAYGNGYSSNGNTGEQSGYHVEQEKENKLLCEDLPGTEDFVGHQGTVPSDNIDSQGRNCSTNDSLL
# * = called active by the depositor; ? = inconclusive; nt = not tested or not shown; & = joins results of further samples. Outcome played no part in choosing rows; about 6.3% have a hit in one of these screens.
# Every second line gives: RanGTP-Imp inh	HNF4A DNA FP	LANA-H2A inh	Beta2AR agonist	Calb FLC	Vif A3G	ALR H2O2 inh
Cc1nc(C)c(C(=O)OCC(=O)NCCc2ccc(F)cc2)s1
 : nt	-1.8	nt	-0.1	nt	-0.9%	nt
Cc1cc(C)cc(N=Cc2c(O)c3ccccc3oc2=O)c1
 : -4.8	-2.8	3.2	-3.2	17.5	-10.0%	-6.0
O=C(CCCN1C(=O)/C(=C\c2ccco2)SC1=S)Nc1ccc2ccccc2c1
 : 6.3	10.6	5.0	-1.4	-4.1	7.25µM*	41.5
O=C(c1cccc(F)c1)N1CCN(c2cccc(Cl)c2)CC1
 : 0.3	3.5	4.1	-2.8	12.0	-2.6%	nt
Cc1c(Cl)cccc1NC(=O)CC1Oc2ccccc2NC1=O (centres undefined)
 : -2.8	4.5	-2.2	3.0	-6.0	nt	-2.7
COC(=O)c1ccc(CSc2nnc3ccccn23)o1
 : -0.1	2.2	-3.4	3.6	32.6	11.0%	-4.1
COCCCn1c(SCC(=O)N2CC(=O)Nc3ccccc32)nnc1-c1ccoc1C
 : -1.1	0.7	1.1	15.6	-4.1	4.5%	0.4
Cc1cc(C(=O)COC(=O)Cc2ccc(Br)cc2)c(C)n1C
 : nt	4.1	-0.8	1.3	nt	-15.1%	1.5
O=C(NC(NC(=O)c1ccccc1)c1cccc([N+](=O)[O-])c1)c1ccccc1
 : 0.7	1.0	2.6	3.7	1.5	nt	3.1
CCNC(=O)c1c(NC(=O)c2cc(-c3cc(C)ccc3O)n[nH]2)sc2c1CCCC2
 : 5.8	1.9	1.2	16.5	-1.8	?	-4.5
Cc1ccnc(NC(=O)C2CCN(S(=O)(=O)c3cccc4nonc34)CC2)c1
 : -2.2	0.3	0.5	-0.9	-1.6	10.6%	-1.0
CC1CCN(C2=C(NS(=O)(=O)c3ccc(Cl)cc3)C(=O)c3ccccc3C2=O)CC1
 : -0.6	2.4	-5.9	1.2	37.7	9.6%	nt
COc1ccc(/C=C/c2c(-c3ccc(OC)cc3)oc3cccnc23)cc1
 : -7.8	-1.7	4.9	-5.4	22.9	nt	-6.8
Cc1nnc(NC(=O)c2ccc(S(=O)(=O)C(F)F)cc2)s1
 : -1.3	6.8	-1.3	3.7	-10.5	2.2%	-7.8
CCCNC(=O)c1ccc(N2CCC3(CC2)CC(c2ccccc2)=NO3)c(NC(=O)c2ccc(Br)cc2)c1
 : ?	-1.4	-0.9	6.4	19.1	nt	-16.7
Cc1ccc(-c2[nH]ncc2CN2CCN(C(=O)c3cccs3)CC2)cc1C
 : 1.6	2.8	-1.0	-2.0	-8.9	-6.7%	-2.4
CCOC(=O)N1CCN(C(=O)C(NS(=O)(=O)c2cccc3nsnc23)c2ccccc2)CC1 (centres undefined)
 : 0.5	-1.1	-1.9	-4.3	-0.8	4.0%	-6.8
NS(=O)(=O)c1ccc(NC(=S)NCc2cccc(Cl)c2)cc1
 : 0.2	0.2	-9.6	2.1	16.2	8.8%	-7.4
CC(C)(CSc1nncn1/N=C/c1ccco1)NS(=O)(=O)c1ccc(Cl)cc1
 : 3.7	0.0	2.4	45.9*	0.4	0.0%&0.3%	1.6
Cc1ccc(C)c(C(=O)COc2ccccc2[N+](=O)[O-])c1
 : 4.3	-1.9	-1.3	1.5	7.4	0.5%	-1.7
Cc1ccc(-n2c(=S)[nH]c3c(oc4ccccc43)c2=O)cc1C
 : -0.6	3.8	-3.6	4.9	?	nt	19.2
COc1cc2c(cc1NC(=O)C(C)Sc1nc3ccccc3n1C)oc1ccccc12 (centres undefined)
 : -0.8	0.5	-0.9	13.4	-4.2	-4.1%	-10.8
O=C(Nc1ccccc1C1CC1)c1cccs1
 : 2.2	-2.3	1.0	-5.1	6.1	?	-9.2
Clc1ccccc1Cc1noc(CN2CCN3CCCC3C2)n1 (centres undefined)
 : ?	-0.9	-3.9	2.3	-19.9	-4.7%	-22.6
CCN1CCN(C(=O)c2cc(S(=O)(=O)N3CC(C)CC(C)C3)ccc2Cl)CC1 (centres undefined)
 : nt	2.2	nt	1.1	nt	-1.8%	nt
CCOc1cc(S(=O)(=O)n2cnc(C)c2)ccc1Cl
 : 0.7	0.2	1.1	-5.4	-10.4	nt	-0.4
O=C(CCN1CCN(c2ccccc2)CC1)c1ccc(Cl)cc1
 : -2.0	-0.1	2.4	0.3	-0.5	-10.6%	nt
COC(=O)c1sccc1-n1cccc1C(=O)C(=O)Nc1ccc(F)cc1
 : 2.3	0.8	1.1	7.4	-21.9	nt	7.5
O=C(c1cccc(S(=O)(=O)N2CCCCCC2)c1)N1CCN(c2ccccc2F)CC1
 : 6.8	-4.9	1.9	-9.9	-4.3	1.2%	-1.5
CCCn1c(N)c(N(CCOC)C(=O)C2CCCC2)c(=O)[nH]c1=O
 : nt	-1.9	-266.6	-2.8	nt	-11.8%	1.1
CCCCCN(C(=O)CCC(=O)OC(C)C(=O)Nc1cccc(C#N)c1)c1c(N)n(CCCC)c(=O)[nH]c1=O (centres undefined)
 : -1.2	6.1	-6.6	-3.1	4.5	-7.6%	-35.3
CC(C)NC(=O)CSc1nncn1-c1ccccc1
 : 0.6	-0.7	-2.4	-2.0	-1.6	0.4%	-3.1
COc1ccc(OC)c(C2=NS(=O)(=O)N(C)C(C(=O)Nc3ccc(F)cc3F)=C2)c1
 : -2.8	-1.2	1.2	-5.7	1.7	nt	1.9
C=CCNC(=O)CCc1nnc(C2(c3ccc(Cl)cc3)CCC2)o1
 : 5.8	4.7	-11.0	-5.0	11.8	-2.9%	-3.2
COC(=O)c1sc(N2C(=O)C(O)=C(C(=O)c3ccc(C)o3)C2c2cccs2)nc1C (centres undefined)
 : -0.5	19.7	-0.5	9.4	-10.2	nt	?
COC(=O)C1=C(C)NC(=O)C1(NS(=O)(=O)c1ccc(NC(C)=O)cc1)C(F)(F)F (centres undefined)
 : 2.1	0.7	-0.3	0.4	-18.0	4.2%	-5.3
CCC(c1nnnn1CCOC)N(Cc1cc2cc(C)c(C)cc2[nH]c1=O)CC1CCCO1 (centres undefined)
 : -12.4	4.8	2.9	0.5	1.6	3.6%	99.1*
CCCCCCn1c(SCCOC)nc2c1c(=O)[nH]c(=O)n2C
 : 1.2	1.2	0.8	7.1	16.7	nt	-5.9
O=C(CSc1nnc(CNC(=O)c2ccccc2F)o1)NCc1ccco1
 : 0.3	8.0	-5.0	-3.2	-6.5	nt	-4.7
C[C@@H](C(=O)N[C@H](C(=O)O)c1ccccc1)n1nnc2ccccc2c1=O
 : 3.5	-2.7	1.2	-2.5	21.1	2.9%	-1.6
CCOC(=O)CSc1nnc(NC(=O)c2cccc(S(=O)(=O)N3CCCCCC3)c2)s1
 : -1.6	2.6	3.5	-1.6	25.4	-6.4%	10.8
COc1ccc(N2CCN(C(=O)CNC(=O)Cn3cnc4sc(C)c(C)c4c3=O)CC2)cc1
 : 2.2	5.0	4.5	2.6	-7.9	-0.4%	4.3
COc1ccccc1OCC(=O)NCCc1nc2ccccc2[nH]1
 : ?	-0.6	-1.3	-2.7	-1.0	22.3%	-18.4
COC(=O)[C@@]1(Cc2ccc(F)cc2)[C@H]2c3cc(C(=O)N(C)C)n(Cc4ccccc4)c3C[C@H]2CN1C(=O)c1ccccc1
 : nt	nt	2.3	nt	nt	?	22.8
CCn1c(=O)n(CC(=O)NCc2ccccc2OC)c(=O)c2ccccc21
 : -1.3	3.1	-3.5	-5.1	-0.2	-2.5%	2.3
O=C(COC(=O)c1ccccn1)NCc1ccccc1
 : 9.3	-2.0	0.6	-5.8	-1.2	21.0%	-7.5
COc1ccc(OCC(O)Cn2c(Nc3cccc(C)c3)nc3c2c(=O)n(C)c(=O)n3C)cc1 (centres undefined)
 : 5.0	2.3	nt	-0.7	-3.8	-14.3%	nt
CN(C(=O)COC(=O)c1ccccc1Nc1ccccc1)C1CCS(=O)(=O)C1 (centres undefined)
 : -0.8	1.6	-4.6	-2.7	33.7	2.6%	98.6*
O=C(NCc1cccs1)c1ccc2c(c1)OCCO2
 : -2.0	-5.8	-3.0	-0.5	-1.6	0.5%	1.5
O=C(c1ccccc1)c1c(-c2ccccc2)[nH]n(-c2ccccc2)c(=O)c1=O
 : -3.6	2.6	-2.5	0.8	-0.1	nt	5.4
CCCCOC(=O)c1sc2nc(C)cc(C)c2c1N
 : 2.1	nt	0.8	nt	-0.2	-5.8%	-7.1
Cc1ccc(NCc2nnc(SCC(=O)Nc3ncc(C)s3)n2CC2CCCO2)c(C)c1 (centres undefined)
 : -1.6	0.6	2.0	-1.8	-7.2	-2.0%	nt
CN1C(c2ccccc2)=NO[C@]1(C)c1ccccc1
 : -1.1	-1.7	0.3	-4.0	-0.1	nt	5.2
CC(C)(C)Nc1nc(Cl)nc(NCCN2CCOCC2)n1
 : -1.4	3.6	0.2	2.4	-3.6	?	0.7
O=C(COC(=O)CNC(=O)c1ccccc1)NC(=O)NC1CCCCC1
 : nt	1.3	-2.0	4.5	nt	-2.0%	-0.1
O=C(Nc1ccccc1OC(F)F)c1ccc(F)cc1
 : 3.0	0.0	-0.1	2.9	-5.9	0.5%	-3.1
O=c1cc(CN2CCCCC2)nc(C2CC2)[nH]1
 : ?	-0.4	-1.0	-0.9	-6.0	4.0%	0.8
O=[N+]([O-])c1ccc(CSc2nc3ncc(Br)cc3[nH]2)cc1
 : 2.6	-9.0	1.4	1.0	0.7	1.9%	0.3
OCCNCc1cccc2ccccc12
 : 3.7	-4.0	0.9	2.1	-5.3	2.9%	-5.4
O=C(CN1CCN(C(c2ccccc2)c2ccccc2)CC1)N1CCOCC1
 : 5.8	0.8	-8.8	0.5	-3.8	4.5%&1.2%	2.6

# Random excerpt: four records from the list, in no set order.
# Every second line gives: RanGTP-Imp inh	HNF4A DNA FP	LANA-H2A inh	Beta2AR agonist	Calb FLC	Vif A3G	ALR H2O2 inh
O=c1cc(CN2CCCCC2)nc(C2CC2)[nH]1
 : ?	-0.4	-1.0	-0.9	-6.0	4.0%	0.8
O=C(c1ccccc1)c1c(-c2ccccc2)[nH]n(-c2ccccc2)c(=O)c1=O
 : -3.6	2.6	-2.5	0.8	-0.1	nt	5.4
C[C@@H](C(=O)N[C@H](C(=O)O)c1ccccc1)n1nnc2ccccc2c1=O
 : 3.5	-2.7	1.2	-2.5	21.1	2.9%	-1.6
O=C(NCc1cccs1)c1ccc2c(c1)OCCO2
 : -2.0	-5.8	-3.0	-0.5	-1.6	0.5%	1.5

# (next part)
# Every second line gives: RanGTP-Imp inh	HNF4A DNA FP	LANA-H2A inh	Beta2AR agonist	Calb FLC	Vif A3G	ALR H2O2 inh
CCN(CC)CCC#CC(O)(c1ccccc1)C1CCCCC1 (centres undefined)
 : ?	1.2	4.4	-4.6	-2.3	-11.8%	-0.9
Cc1onc(-c2ccccc2Cl)c1C(=O)NCc1ccc2c(c1)cc(C)n2C
 : 0.7	-15.9	2.8	1.4	-1.7	nt	-13.5
CCOC(=O)c1c(NC(=O)Cn2nnc(-c3ccccc3Cl)n2)sc(C)c1C
 : 6.2	-0.6	-3.1	6.4	?	65.2%	-19.1
CCOC(=O)Cn1c(=O)c(-c2ccccc2N)nc2ccccc21
 : -0.4	4.8	-5.4	0.0	1.8	nt	26.5

# As entered above:
# O=C(COC(=O)c1ccccn1)NCc1ccccc1 | ALR H2O2 inh = -7.5
# Cc1cc(C(=O)COC(=O)Cc2ccc(Br)cc2)c(C)n1C | ALR H2O2 inh = 1.5
# Cc1ccnc(NC(=O)C2CCN(S(=O)(=O)c3cccc4nonc34)CC2)c1 | Vif A3G = 10.6%
# O=C(CN1CCN(C(c2ccccc2)c2ccccc2)CC1)N1CCOCC1 | Vif A3G = 4.5%&1.2%
